Source: PubChem BioAssay (Broad Institute)
Shh pathway inh: blocks Sonic Hedgehog signaling; Shh-LIGHT2 Gli-luciferase reporter, 30 h; inhibition, % (test concentration not listed); hit rate 2.1% among 22,000;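 active means replicate mean of 65% or more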;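 further: pathway switched on by Shh-conditioned medium diluted 1 in 25 in low serum; 100 nL library stock added to about 40 µL; 0% = median of neutral wells and 100% = positive control level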
PD-1 reversal: activators reversing PD-1 mediated T-cell inhibition. primary human CD4 T cells, PD-L1 beads, CellTiter-Glo 96 h. 29,000 tested, under 10 active. activation, % (no concentration beside the values);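 active means replicate mean of 50% or more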;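 further: 0% = median vehicle wells and 100% = positive control; 100 nL library stock added to about 50 µL; numbers are from one replicate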
MITF inh: blocks MITF activity. inhibition, % (concentration not given with the values). hit rate 0.28% among 37,000. TRPM1 promoter luciferase, luminescence, 24 h. AID 2240;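 active means most replicates at 85% or more, or half of them and the mean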;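 further: human melanocyte line stably carrying TRPM1 promoter luciferase reporter; 0% = vehicle wells and 100% = a positive control; the first replicate is given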
YB-1 expr inh: YB-1 expression inhibition. U2OS, qRT-PCR YB-1 vs CDIP delta delta Cp, 16 h; hits give high values; zero = DMSO, each unit about twofold. delta delta Cp (YB-1 minus CDIP) (no concentration beside the values). hit rate 0.37% among 30,000;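 active means delta delta Cp rounded down to an integer at or above 3, about 3 SD of DMSO wells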;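 further: higher means less YB-1 transcript or more CDIP transcript relative to DMSO; stock transfer was 100 nL into about 100 µL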
Active calls of the source: *; . = no result given.

SMILES	Shh pathway inh	PD-1 reversal	MITF inh	YB-1 expr inh
C[C@@H]1CN([C@H](C)CO)C(=O)c2cccc(NC(=O)c3ccc(-c4nccs4)cc3)c2O[C@H]1CN(C)Cc1ccc(Oc2ccccc2)cc1	17.2	1.4	46.2	0.14
Cc1noc(C)c1NC(=O)Nc1cccc2c1O[C@@H](CN(C)Cc1ccc(Cl)c(Cl)c1)[C@@H](C)CN([C@@H](C)CO)C2=O	-35.6	0.1	0.3	0.111
Cc1noc(C)c1NC(=O)Nc1cccc2c1O[C@H](CN(C)S(=O)(=O)c1cccs1)[C@@H](C)CN([C@@H](C)CO)C2=O	-6.5	.	1.0	-0.562
C[C@@H]1CN([C@@H](C)CO)C(=O)c2cccc(NC(=O)C3CCOCC3)c2O[C@H]1CN(C)S(=O)(=O)c1cn(C)cn1	8.5	1.2	-10.2	-0.0367
C=CC1CN(C(C)=O)CCC1CCC(=O)c1ccnc2ccccc12 (stereo not drawn)	-17.2	-2.2	62.0	-0.0581
C[C@@H]1CN([C@H](C)CO)C(=O)Cc2cc(NC(=O)C3CCCCC3)ccc2O[C@@H]1CN(C)S(=O)(=O)c1cn(C)cn1	-44.1	0.4	-3.9	-0.194
Cc1ccc(S(=O)(=O)N(C)C[C@H]2Oc3ccc(NS(=O)(=O)c4ccccc4)cc3C(=O)N([C@H](C)CO)C[C@@H]2C)cc1	.	-2.6	-2.5	0.205
Cc1cc(C)c(OC(=O)/C=C/c2cccs2)c(C)c1	-0.6	-1.3	0.5	-0.372
Cc1cc(C)cc(N(C(C)C(=O)Nc2cccc(Cl)c2)S(C)(=O)=O)c1 (stereo not drawn)	.	-1.5	30.5	.
Cc1noc(C)c1S(=O)(=O)Nc1cccc2c1O[C@H](CN(C)S(=O)(=O)c1ccccc1)[C@H](C)CN([C@@H](C)CO)C2=O	-13.3	-1.4	1.8	-0.00811
COc1ccc(NC(=O)N(C)C[C@@H]2Oc3ccc(NC(=O)Cc4ccccc4)cc3CC(=O)N([C@H](C)CO)C[C@@H]2C)cc1	-20.5	-1.4	5.4	-0.0147
Cc1cc(C(=O)Nc2cccc3c2O[C@H](CN(C)C(=O)NC(C)C)[C@@H](C)CN([C@@H](C)CO)C3=O)n(C)n1	6.7	.	-10.1	-0.156
COc1ccc(C(C)C)cc1S(=O)(=O)n1nnc2ccccc21	.	-0.1	-5.6	.
Cc1noc(C)c1NC(=O)Nc1ccc2c(c1)CC(=O)N([C@H](C)CO)C[C@@H](C)[C@@H](CN(C)Cc1ccc(C(F)(F)F)cc1)O2	.	-1.2	-19.9	-0.299
Cc1noc(C)c1NC(=O)Nc1cccc2c1O[C@@H](CN(C)Cc1ccc(C(=O)O)cc1)[C@H](C)CN([C@@H](C)CO)C2=O	-34.2	2.4	-7.3	-0.412
COc1ccc(Cl)cc1NC(=O)C(C)n1cc([N+](=O)[O-])cn1 (stereo not drawn)	.	-0.9	16.0	.
C[C@H](CO)N1C[C@H](C)[C@@H](CN(C)Cc2ccc(C(F)(F)F)cc2)Oc2c(cccc2N(C)C)C1=O	-65.1	-4.6	-7.3	0.237
C[C@@H]1CN([C@@H](C)CO)C(=O)c2cc(NS(=O)(=O)c3cccs3)ccc2O[C@@H]1CN(C)C(=O)Nc1ccc2c(c1)OCO2	-9.0	-0.8	11.2	0.259
Cc1cc(C)cc(Oc2coc3cc(OCC(=O)NCc4ccccc4)ccc3c2=O)c1	61.0	-0.4	9.3	0.029
Cc1ccc(S(=O)(=O)Nc2ccc3c(c2)CC(=O)N([C@H](C)CO)C[C@@H](C)[C@@H](CN(C)S(=O)(=O)c2c(C)noc2C)O3)cc1	31.2	.	1.2	0.424

Complete entries, quoted from the list. Screens in order: Shh pathway inh, PD-1 reversal, MITF inh, YB-1 expr inh
`C[C@H](CO)N1C[C@H](C)[C@@H](CN(C)Cc2ccc(C(F)(F)F)cc2)Oc2c(cccc2N(C)C)C1=O` is listed with -65.1, -4.6, -7.3, 0.237
`Cc1noc(C)c1NC(=O)Nc1cccc2c1O[C@@H](CN(C)Cc1ccc(Cl)c(Cl)c1)[C@@H](C)CN([C@@H](C)CO)C2=O` is listed with -35.6, 0.1, 0.3, 0.111
`COc1ccc(C(C)C)cc1S(=O)(=O)n1nnc2ccccc21` is listed with ., -0.1, -5.6, .

New compounds follow
SMILES	Shh pathway inh	PD-1 reversal	MITF inh	YB-1 expr inh
CS(=O)(=O)Nc1ccc2c3c(cccc13)CC2	16.5	0.2	-0.6	0.962
COc1ccccc1NC(=O)CN1C(=O)C2C3CCC(C3)C2C1=O (stereo not drawn)	.	-1.7	37.5	.
C[C@H](CO)N1C[C@H](C)[C@H](CN(C)S(=O)(=O)c2cccs2)Oc2c(NC(=O)c3cnccn3)cccc2C1=O	-100.5	-1.6	-14.5	0.448
C[C@@H]1CN([C@@H](C)CO)C(=O)c2cccc(NC(=O)c3ccncc3)c2O[C@@H]1CN(C)CC1CC1	1.8	2.1	5.1	-0.48
C[C@H]1CN([C@@H](C)CO)C(=O)c2cccc(NC(=O)c3nc4ccccc4s3)c2O[C@@H]1CN(C)S(=O)(=O)c1ccc(F)cc1	0.5	.	11.9	-0.462
Cc1noc(C)c1NC(=O)Nc1cccc2c1O[C@H](CN(C)C(=O)Nc1ccc(F)cc1)[C@H](C)CN([C@H](C)CO)C2=O	-3.0	2.2	-6.7	0.179
CCOC(=O)c1c(NC(=O)c2ccc(C)c(S(=O)(=O)N3CCOCC3)c2)sc2c1CCC2	.	-2.1	-23.7	.
COc1ccc(S(=O)(=O)Nc2cccc3c2O[C@@H](CN(C)CC2CC2)[C@H](C)CN([C@H](C)CO)C3=O)cc1	-20.4	1.5	-8.6	-0.0622
COc1ccc(CN(C)C[C@@H]2Oc3ccc(NC(=O)Nc4ccc(C(F)(F)F)cc4)cc3C(=O)N([C@H](C)CO)C[C@H]2C)cc1	.	5.3	-8.4	0.691
COc1ccc(C)cc1S(=O)(=O)N(C)CC(=O)Nc1ccc2c(c1)OCCO2	.	1.1	13.9	.
O=C(CCn1cnc2ccccc2c1=O)Nc1ccc(F)c(C(F)(F)F)c1	.	-3.2	-35.2	.
CC1OC(OCC2OC(O[C@H]3CC[C@@]4(C)C(CC[C@@]5(C)C6=C(CCC45)C4CC(C)(C)CC[C@]4(C(=O)OC4OC(CO)C(O)C(O)C4O)CC6)C3(C)C)C(O)C(O)C2O)C(O)C(O)C1O (stereo partly drawn)	-5.3	.	.	0.61
C[C@@H]1CN([C@H](C)CO)C(=O)c2cccc(NC(=O)Nc3cccc4ccccc34)c2O[C@H]1CN(C)C(=O)Nc1ccc(F)cc1	20.5	-3.1	18.5	-0.364
Cc1cccc(NC(=O)c2ccc(OC(C)C(=O)Nc3ccc(Br)cc3)cc2)c1C (stereo not drawn)	.	-0.5	32.0	.
COC(=O)c1ccccc1NC(=O)CSc1nc2c(cc1C#N)CCCCC2	.	1.6	-41.0	.
C[C@@H]1CN([C@@H](C)CO)C(=O)c2cc(NC(=O)NC3CCCCC3)ccc2O[C@H]1CN(C)C(=O)Nc1ccc2c(c1)OCO2	-90.2	-0.8	-12.1	0.134
Cc1ccc(S(=O)(=O)Nc2cccc3c2O[C@H](CN(C)C(=O)NC(C)C)[C@H](C)CN([C@H](C)CO)C3=O)cc1	36.3	-0.2	5.0	-0.305
O=C(CSc1nccc(=O)[nH]1)N1CCc2ccccc21	.	-5.1	-3.4	.
COc1ccc(NC(=O)N(C)C[C@H]2Oc3c(NC(=O)c4cc(C)nn4C)cccc3C(=O)N([C@H](C)CO)C[C@H]2C)cc1	-10.9	2.7	-14.3	-0.524
COc1ccc(C)cc1S(=O)(=O)N(C)CC(=O)N1CCN(c2ccccc2F)CC1	.	-0.3	6.2	.
C[C@H]1CN([C@@H](C)CO)C(=O)Cc2cc(NS(=O)(=O)c3ccc(F)cc3)ccc2O[C@@H]1CN(C)Cc1ccc(Cl)c(Cl)c1	12.8	-1.8	16.2	0.0492
Cc1noc(C)c1NC(=O)Nc1cccc2c1O[C@@H](CN(C)C(=O)Nc1cccc3ccccc13)[C@H](C)CN([C@@H](C)CO)C2=O	1.8	-0.3	0.7	0.51
CCn1c(SCC(=O)Nc2ccc(Br)c(Cl)c2)nnc1-c1ccccc1O	.	-3.1	59.9	.
Cc1ccc(S(=O)(=O)Nc2ccc3c(c2)C(=O)N([C@H](C)CO)C[C@H](C)[C@@H](CN(C)S(=O)(=O)c2ccc(Cl)cc2)O3)cc1	.	-1.2	-1.9	-0.518
Cc1ccc(S(=O)(=O)N(C)C[C@H]2Oc3ccc(NS(=O)(=O)c4c(C)noc4C)cc3C(=O)N([C@@H](C)CO)C[C@H]2C)cc1	13.2	-0.9	6.3	-0.0887
C[C@H]1CN([C@@H](C)CO)C(=O)Cc2cc(NC(=O)CCCCCC(=O)Nc3ccccc3N)ccc2O[C@@H]1CN(C)Cc1ccncc1	.	0.2	-23.7	-0.208
C[C@@H]1CCCCO[C@@H](CN(C)C(=O)CCC(F)(F)F)[C@@H](C)CN([C@H](C)CO)C(=O)c2cc(NC(=O)Nc3ccc4c(c3)OCO4)ccc2O1	18.5	.	-6.3	0.48
C[C@@H]1CCCCO[C@H](CN(C)C(=O)C2CCCCC2)[C@@H](C)CN([C@H](C)CO)C(=O)c2cc(NC(=O)Nc3cccc4ccccc34)ccc2O1	3.1	-0.4	3.0	0.583
C[C@@H]1CN([C@@H](C)CO)C(=O)Cc2cc(NC(=O)CCC(F)(F)F)ccc2O[C@@H]1CN(C)Cc1ccc(C(=O)Nc2ccccc2N)cc1	.	-0.2	5.0	-0.44
CC(Sc1nc2ccccc2c(=O)[nH]1)C(=O)Nc1cccc(Cl)c1 (stereo not drawn)	.	2.9	42.8	.
COC(=O)c1ccccc1NC(=O)CNC(=O)c1ccc(OC)c(OC)c1	.	1.1	-11.2	.
OC[C@H]1O[C@@H](OCCc2ccc(O)cc2)[C@H](O)[C@@H](O)[C@@H]1O	-5.7	-0.9	-27.8	1.75
C[C@@H]1CN([C@@H](C)CO)C(=O)c2cc(NC(=O)C3CCCCC3)ccc2O[C@@H]1CN(C)C(=O)NC1CCCCC1	0.7	-1.1	1.0	-0.735
C[C@H]1CN([C@@H](C)CO)C(=O)c2cccc(NC(=O)Nc3ccc4c(c3)OCO4)c2O[C@@H]1CN(C)S(=O)(=O)c1cn(C)cn1	-26.3	2.8	-9.4	-0.162
O=C(Nc1ccccc1C(=O)O)c1cccc(S(=O)(=O)Nc2ccccc2F)c1	.	3.3	5.3	.
Cc1c(C(=O)O)oc2ccccc12	-66.2	-0.6	0.8	-0.552
C[C@@H]1CN([C@@H](C)CO)C(=O)Cc2cc(NC(=O)Nc3cccc4ccccc34)ccc2O[C@@H]1CN(C)Cc1ccc(-c2ccccc2)cc1	26.3	-0.9	-2.1	0.194
C[C@H](CO)N1C[C@H](C)[C@@H](CN(C)Cc2ccc(-c3ccccc3)cc2)Oc2ccc(N(C)C)cc2C1=O	9.6	-1.6	8.0	0.122
COC(=O)C1=CO[C@@H](O[C@@H]2O[C@H](CO)[C@@H](O)[C@H](O)[C@H]2O)[C@@H]2[C@@H](C)[C@@H](OC(=O)C3=CO[C@@H](O[C@@H]4O[C@H](CO)[C@@H](O)[C@H](O)[C@H]4O)[C@@H]4[C@@H](C)[C@@H](OC(C)=O)C[C@H]34)C[C@H]12	-26.5	1.7	-4.6	-0.18
O=C(NCc1nc2ccccc2n1Cc1ccccc1)c1ccccc1	.	-0.8	0.1	.

The closing two records of the part above lead into the next.
SMILES	Shh pathway inh	PD-1 reversal	MITF inh	YB-1 expr inh
COC(=O)C1=CO[C@@H](O[C@@H]2O[C@H](CO)[C@@H](O)[C@H](O)[C@H]2O)[C@@H]2[C@@H](C)[C@@H](OC(=O)C3=CO[C@@H](O[C@@H]4O[C@H](CO)[C@@H](O)[C@H](O)[C@H]4O)[C@@H]4[C@@H](C)[C@@H](OC(C)=O)C[C@H]34)C[C@H]12	-26.5	1.7	-4.6	-0.18
O=C(NCc1nc2ccccc2n1Cc1ccccc1)c1ccccc1	.	-0.8	0.1	.
COc1cc2c(cc1NC(=O)C(C)Oc1ccc(Br)cc1)oc1ccccc12 (stereo not drawn)	.	2.8	-22.2	.
C[C@@H]1CN([C@H](C)CO)C(=O)c2cccc(NC(=O)C3CCOCC3)c2O[C@@H]1CN(C)Cc1ccc2c(c1)OCO2	-56.0	0.5	1.7	-0.182
COc1ccccc1C1CCN(C(=O)C2CCCCC2)CC1	34.4	-1.6	8.0	-0.47
Cc1ccc(S(=O)(=O)Nc2ccc3c(c2)C(=O)N([C@H](C)CO)C[C@H](C)[C@H](CN(C)Cc2ccc(C(=O)O)cc2)OCCCC[C@@H](C)O3)cc1	.	1.5	-1.0	0.644
CCOC(=O)c1c(NC(=O)c2ccc(C)c(S(=O)(=O)N3CCOCC3)c2)sc(C)c1C	.	-4.0	-3.8	.
CC(C)NC(=O)N(C)C[C@H]1OCCCC[C@@H](C)Oc2ccc(NC(=O)c3ccncc3)cc2C(=O)N([C@H](C)CO)C[C@@H]1C	12.6	-0.1	-18.3	0.181
C[C@H]1CN([C@@H](C)CO)C(=O)c2cc(NC(=O)Nc3ccc4c(c3)OCO4)ccc2O[C@H]1CN(C)C(=O)NC1CCCCC1	-3.5	-0.8	-14.7	-0.0105
CC(C)NC(=O)Nc1cccc2c1O[C@H](CN(C)S(=O)(=O)c1ccc(F)cc1)[C@H](C)CN([C@H](C)CO)C2=O	-3.1	0.2	0.3	-0.371
COc1ccc(NC(=O)Nc2cccc3c2O[C@@H](CN(C)Cc2ccc(-c4ccccc4)cc2)[C@@H](C)CN([C@H](C)CO)C3=O)cc1	-45.6	-1.8	-8.9	0.268

This is a subset, so the mix of outcomes need not match the whole.
